# RGS16-Gao: modulates binding between human RGS16 and Galphao; O15492+P09471; bead-based flow cytometry RGS16-Galphao binding, fluorescence; actives lie on both sides; binding response (% of control), % at 10 µM; hit rate 0.38% among 220,000;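 active means below 25% or above 175%, edge rows of some plates excepted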;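 further: Galphao activated by GDP with aluminum fluoride before binding; 100% = wells without compound and 0% = beads without RGS; some results beyond the cut were filed as inactive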
# Target sequence (O15492 whole entry, looked up): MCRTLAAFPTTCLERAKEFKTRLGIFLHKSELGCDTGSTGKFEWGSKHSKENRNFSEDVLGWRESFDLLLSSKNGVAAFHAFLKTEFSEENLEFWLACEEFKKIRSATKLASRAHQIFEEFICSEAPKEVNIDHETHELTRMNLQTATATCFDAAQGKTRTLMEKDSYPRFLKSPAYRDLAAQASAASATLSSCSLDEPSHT
# Target sequence (P09471 whole entry, looked up): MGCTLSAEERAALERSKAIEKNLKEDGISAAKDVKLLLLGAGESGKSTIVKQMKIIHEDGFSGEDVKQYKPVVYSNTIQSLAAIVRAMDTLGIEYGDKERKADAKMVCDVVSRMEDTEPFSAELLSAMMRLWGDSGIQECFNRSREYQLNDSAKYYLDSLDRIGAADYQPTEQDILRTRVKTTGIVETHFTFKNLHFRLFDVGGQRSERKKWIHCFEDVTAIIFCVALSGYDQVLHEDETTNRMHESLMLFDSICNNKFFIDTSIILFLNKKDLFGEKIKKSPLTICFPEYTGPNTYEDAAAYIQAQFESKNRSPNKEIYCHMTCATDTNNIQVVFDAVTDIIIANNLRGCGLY
# GALR2 ag: activates the human galanin receptor 2 | GALR2-expressing cells, agonist activation read-out | activation, %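 (tested at 5 µM)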 | hit rate 0.48% among 140,000 | AID 803;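 active means above mean plus 3 SD of all compounds, about 5% in these data, not always enough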;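 further: 0% = vehicle buffer wells and 100% = reference agonist at full effect; tested in CHO reporter cells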
# Target sequence (O43603 whole entry, looked up): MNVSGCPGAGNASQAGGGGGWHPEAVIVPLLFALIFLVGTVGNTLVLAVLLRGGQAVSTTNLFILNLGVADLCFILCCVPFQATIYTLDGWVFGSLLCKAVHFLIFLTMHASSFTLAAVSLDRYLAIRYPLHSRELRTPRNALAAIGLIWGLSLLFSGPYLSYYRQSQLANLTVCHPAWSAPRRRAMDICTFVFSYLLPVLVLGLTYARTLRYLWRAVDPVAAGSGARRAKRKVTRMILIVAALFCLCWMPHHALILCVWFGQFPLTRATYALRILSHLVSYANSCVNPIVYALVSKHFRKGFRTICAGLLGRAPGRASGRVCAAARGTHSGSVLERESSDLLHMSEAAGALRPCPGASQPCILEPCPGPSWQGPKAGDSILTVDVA
# Insulin prom inh: TRM-6 insulin promoter activity inhibition. inhibition, % at 2 µM. AID 1273. hit rate 0.9% among 130,000. TRM-6 cells (human fetal islet line), insulin promoter-eGFP reporter, imaging; reporter expression induced with tamoxifen;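 active means inhibition above the mean plus 3 SD, with well images judged a real hit on visual review, cut at about 60% in these data, passing the limit was not always enough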
# PKD1 kinase inh: inhibitors of human PKD1 kinase; Q15139; PKD1 kinase fluorescence polarization assay; inhibition, %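 (about 10 µM by stock and volumes)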; hit rate 0.056% among 200,000;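 active means inhibition of 50% or more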;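 further: controls were vehicle for no effect and a reference inhibitor for full effect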
# HSV replic up: increases HSV replication in cells; HSV replication augmentation in cells, fold increase; AID 1956; maximum fold increase; hit rate 0.005% among 220,000;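 active means peak rise of 1.5-fold or more in the series; tested in PC3 cells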;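 further: first round at 10 µM; read as green reporter fluorescence; hits show the peak of a series up to 25 µM; 1 = signal of infected wells without compound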
# Insulin prom inh cell count: also measured in Insulin prom inh; calls as there; normalized cell count, %; measured here: cell count, toxicity; reference of the scale not given here;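 cells exposed to compound for 48 h; stained nuclei by imaging scaled within each plate; lower means fewer cells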
# HSV replic up primary fold: further read-out of HSV replic up, marked with its call; fold increase; compound at 10 µM; measured here: primary screen fold increase 10 uM; tested in PC3 cells;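 GFP signal in the first replicate; 1 = infected wells without compound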
# Active calls of the source: *; i = inactive; · = no result given; & = joins results of further samples.
# Fields: PKD1 kinase inh | GALR2 ag | RGS16-Gao | Insulin prom inh | HSV replic up primary fold | HSV replic up | Insulin prom inh cell count
CSc1cccc(CN2CCN(CCC(C)C)C(CCO)C2)c1 (configuration not stated)
  -2 | · | 109 | · | 0.99 | i | ·
Cc1cc(OC(C)C)nc(NCc2ccccc2)n1
  -4 | -0.2 | 106 | -11 | 0.84 | i | 118
Cc1cccc(NC(=O)CS(=O)(=O)c2cn(C)c3ccccc23)c1
  -7 | -1.8 | 102 | · | 0.93 | i | ·
CCOc1ccc(Oc2ccccc2NC(=O)CCNC(C)=O)cc1
  -6 | · | 103 | · | 0.95 | i | ·
CS(=O)(=O)N(CC(=O)N1CCN(Cc2ccccc2)CC1)C1CCCCC1
  -7 | -4.0 | 123 | -77 | 1 | i | 112
CN(C)C(=O)c1ccc2c3c(cccc13)CC2
  0 | · | 84 | 29 | 1.1 | i | 132
CC1=NOC(=O)/C1=C/c1ccc(O)cc1
  -6 | · | 89 | -8 | 1 | i | 100
Cc1cc(CNCc2cn(C)nc2-c2ccc(Oc3ccccc3)cc2)on1
  -3 | · | 98 | · | 0.91 | i | ·
CC(C)[C@H](NC(=O)OCc1ccccc1)C(=O)OCC(=O)NC1CCCCC1
  -2 | -2.0 | 98 | -37 | 1 | i | 97
COc1cc(/C=N/n2c(-c3n[nH]c4c3CCC4)n[nH]c2=S)ccc1O
  · | · | 96 | · | 0.93 | i | ·
Cc1ccc(-c2cc(C(=O)OCC(=O)N(C)C3CCS(=O)(=O)C3)c3ccccc3n2)o1 (configuration not stated)
  8 | · | 99 | · | 1.1 | i | ·
CCCc1sc(N/N=C/c2ccccn2)nc1-c1ccc(Br)cc1
  7 | -2.0 | 109 | 59 | 0.64 | i | 77
Nc1cc(-c2cccc([N+](=O)[O-])c2)[nH]n1
  -6 | -1.0 | 105 | · | 0.93 | i | ·
CN1/C(=C\C(=O)Nc2cccc(Cl)c2)C(C)(C)c2ccccc21
  2 | -1.8 | 95 | · | 1.1 | i | ·
COc1ccccc1CNC(=O)CSc1ccc(-c2ccncc2)nn1
  -11 | · | 91 | 17 | 0.93 | i | 86
Cc1ccccc1NC(=S)NCc1cccs1
  -11 | -0.7 | 105 | -321 | 0.95 | i | 87
CCOc1ccc(NC(=O)CN(C)CC(=O)Nc2ccccc2SC)cc1OCC
  -6 | -1.5 | 93 | · | 1 | i | ·
O=C(CNC(=S)NC(=O)c1ccccc1Br)c1ccccc1
  2 | · | 100 | · | 0.99 | i | ·
O=C(Cc1nn[nH]n1)NCCC1=CCCCC1
  -7 | -2.2 | 51 | 40 | 0.82 | i | 131
CCCc1nc2c(nnn2Cc2ccccc2Cl)c(=O)[nH]1
  0 | · | 92 | · | 1.1 | i | ·
CC(c1ccco1)N(C(=O)COc1ccc(Cl)cc1)c1ccccn1 (configuration not stated)
  -5 | -2.5 | 86 | 6 | 1 | i | 44
CCSc1nnc([C@@H](NC(=O)OC(C)(C)C)C(C)C)o1
  · | · | 98 | · | 0.92 | i | ·
O=C(NC1CC2CCC(C1)N2Cc1ccco1)c1ccccc1 (configuration not stated)
  -7 | -1.6 | 109 | -31 | 0.94 | i | 67
CC(=O)CSc1ccc(C(=O)O)cn1
  -8 | -0.5 | 102 | -33 | 0.93 | i | 87
CCOC(=O)N1CCN(c2ncnc3nc[nH]c23)CC1
  9 | -1.2 | 103 | -100 | 0.82 | i | 74
COc1ccc(C(=O)/C=C/c2cn(CN3CCN(C)CC3)c3ccccc23)cc1
  2 | 5.7 | 94 | -3 | · | · | 80
COCCNC(=O)C(c1ccc(Cl)cc1)N(CCOC)C(=O)CCC(=O)Nc1nccs1 (configuration not stated)
  -1 | · | 106 | · | 1 | i | ·
CCO[C@@H]1OC(C(=O)NCc2ccccc2)=C[C@H](c2ccc3c(c2)OCO3)[C@H]1CCCO
  0 | · | 98 | · | 1.1 | i | ·
O=C(CN1CCC(O)(c2ccc3c(c2)OCO3)CC1)NC1CCCCC1
  -10 | · | 100 | -13 | 0.91 | i | 172
CC(=O)Nc1cc2c(cc1[N+](=O)[O-])OCCO2
  -2 | · | 98 | -16 | 0.92 | i | 103
O=C(Cn1nnc2ccccc21)C1CC1
  6 | -1.5 | 105 | · | 0.68 | i | ·
COc1cc(NC(=O)c2cccnc2SC)cc(OC)c1OC
  -2 | · | 101 | · | 1 | i | ·
Cc1ccc(-n2nc(C(=O)N/N=C/c3cccc(C(F)(F)F)c3)c3ccccc3c2=O)cc1C
  6 | -1.2 | 107 | -27 | 0.81 | i | 87
O=c1c2ccccc2ncn1CCCSc1ccc(Cl)cc1
  -2 | -3.8 | 95 | -15 | 0.88 | i | 124
O=C(Cc1ccccc1)Nn1cnc2ccccc21
  -7 | -4.1 | 105 | -45 | 1.1 | i | 115
COc1ccc(C(=O)Nn2cnnc2)cc1OC
  · | · | 97 | · | 1 | i | ·
Cc1cc(C)nc(-n2nc(C)cc2NC(=O)CNC2CCCCC2)n1
  -9 | -1.1 | 100 | 31 | 0.85 | i | 80
CC(C)NS(=O)(=O)c1ccc(OCC(=O)N2CCCC2)cc1
  -2 | -0.2 | 98 | -94 | 0.7 | i | 75
NC(=O)c1ccc(NC(=O)COC(=O)c2ccc3c(c2)OCCO3)cc1
  · | · | 96 | · | 0.99 | i | ·
C[N+](C)(C)CCCN(Cc1ccc2c(c1)OCO2)C(=O)NC1CCCCC1
  · | · | 103 | · | 0.87 | i | ·
CCCn1cc(CN2CCC(N3CCC(C(=O)N4CCOCC4)CC3)CC2)c(C)n1
  · | · | 74 | · | 0.84 | i | ·
Cc1nn(S(=O)(=O)c2cccs2)c(C)c1Sc1ccc([N+](=O)[O-])cc1
  1 | -2.6 | 96 | -54 | 1 | i | 118
CC(=O)Nc1sc2c(c1-c1nc3ccccc3s1)CCN(C(C)C)C2
  2 | · | 106 | · | · | · | ·
Cc1ccc(NC2=NC(c3ccc(O)cc3)n3c(nc(C)cc3=O)N2)cc1 (configuration not stated)
  1 | -0.4 | 108 | · | 0.93 | i | ·
CSc1ccc(CNc2cccc3ccccc23)cc1
  -1 | -4.1 | 104 | 21 | 0.95 | i | 82
S=C(NCCCn1ccnc1)Nc1ccc(Cl)cc1Cl
  -3 | · | 104 | -76 | 0.99 | i | 30
CC(C)OCCCn1c(=NC(=O)c2ccncc2)c(C#N)cc2c(=O)n3ccccc3nc21
  -4 | 12* | 95 | 14 | 1.3 | i | 94
COc1cc(OC)c(-c2nc3c[n+](CC(=O)c4ccccc4)ccc3n2C)cc1OC
  -4 | -3.5 | 87 | -19 | 1.2 | i | 44
O=C(CN1c2cccc3cccc(c23)S1(=O)=O)Nc1ccc(S(=O)(=O)N2CCOCC2)cc1
  0 | -0.5 | 101 | · | 0.99 | i | ·
Cc1nc2oc3ccccc3c(=O)c2c(=O)n1Cc1ccccc1
  4 | -0.1 | 93 | 6 | 0.97 | i | 43
CCOC(CNC(=O)c1ccc2c(c1)nc(C)n2-c1cccc(F)c1)OCC
  2 | -1.6 | 100 | -53 | 0.8 | i | 49
CNC(=O)c1ccc(-n2cccn2)nc1
  7 | · | 78 | 48 | 1.1 | i | 86
CC(=O)Nc1ccc(S(=O)(=O)N(C)CC(=O)OCC(=O)NC(C)C23CC4CC(CC(C4)C2)C3)cc1 (configuration not stated)
  4 | -0.4 | 112 | -9 | 1.1 | i | 104
CCOC(=O)/C=C(C)\C=C\c1c[nH]c2ccccc12
  · | · | 99 | · | 0.83 | i | ·
O=C(O)c1cnn2c(C(F)(F)F)cc(-c3ccco3)nc12
  1 | -0.8 | 98 | · | 1.1 | i | ·
CN(C1CCCCC1)S(=O)(=O)c1ccc2c(c1)c(=O)c(C(=O)NCCCN1CCCC1)cn2C
  -2 | -2.5 | 100 | · | 0.86 | i | ·
CCCN(CCC)CC(O)COc1ccc([N+](=O)[O-])cc1 (configuration not stated)
  7 | -1.9 | 111 | -3 | 1 | i | 120
COc1ccc(CC(=O)Nc2ccc(-c3ccc4nnc(C)n4n3)cc2)cc1OC
  -1 | · | 99 | -61 | 1 | i | 129
N#CCOc1nc(N2CCCCC2)nc(N2CCCCC2)n1
  -9 | · | 112 | · | 0.92 | i | ·
COc1ccc(OC)c(-n2c(SCC(=O)Nc3cccc(S(N)(=O)=O)c3)nc3ccccc3c2=O)c1
  · | · | 91 | · | 1 | i | ·

# Another view of some results above:
structure | PKD1 kinase inh | GALR2 ag | RGS16-Gao | Insulin prom inh | HSV replic up primary fold | HSV replic up | Insulin prom inh cell count
S=C(NCCCn1ccnc1)Nc1ccc(Cl)cc1Cl | -3 | · | 104 | -76 | 0.99 | i | 30
CC(C)OCCCn1c(=NC(=O)c2ccncc2)c(C#N)cc2c(=O)n3ccccc3nc21 | -4 | 12* | 95 | 14 | 1.3 | i | 94
COc1cc(OC)c(-c2nc3c[n+](CC(=O)c4ccccc4)ccc3n2C)cc1OC | -4 | -3.5 | 87 | -19 | 1.2 | i | 44
O=C(CN1c2cccc3cccc(c23)S1(=O)=O)Nc1ccc(S(=O)(=O)N2CCOCC2)cc1 | 0 | -0.5 | 101 | · | 0.99 | i | ·
Cc1nc2oc3ccccc3c(=O)c2c(=O)n1Cc1ccccc1 | 4 | -0.1 | 93 | 6 | 0.97 | i | 43

# The listing picks up; the 2 compounds before the break are reprinted first.
# Fields: PKD1 kinase inh | GALR2 ag | RGS16-Gao | Insulin prom inh | HSV replic up primary fold | HSV replic up | Insulin prom inh cell count
N#CCOc1nc(N2CCCCC2)nc(N2CCCCC2)n1
  -9 | · | 112 | · | 0.92 | i | ·
COc1ccc(OC)c(-n2c(SCC(=O)Nc3cccc(S(N)(=O)=O)c3)nc3ccccc3c2=O)c1
  · | · | 91 | · | 1 | i | ·
O=C(O)/C(=C\c1ccccc1OC(F)F)Sc1nnc(-c2ccc(F)cc2)o1
  0 | · | 103 | -14 | 0.94 | i | 135
COc1cc(C2Nc3cccc4cccc(c34)N2)cc(OC)c1OC(C)=O
  1 | -1.4 | 113 | 19 | · | · | 107
C/C=C(\C)C(=O)Nc1cccc(C2=NOC3(C2)C[C@H](C(N)=O)N(C(=O)c2cc([N+](=O)[O-])cc([N+](=O)[O-])c2)C3)c1 (some centres not stated)
  · | · | 98 | · | 1.1 | i | ·
COC(=O)c1ccccc1NS(=O)(=O)c1ccc(Cl)nc1
  -7 | · | 102 | · | 0.85 | i | ·
Cc1ccc(-n2c(SCC(=O)N3CCCCC3)nc(O)cc2=O)cc1
  · | · | 104 | · | 1 | i | ·
COCCCNC(=S)N/N=C/c1cccc(OC)c1O
  · | · | 137 | · | 1.1 | i | ·
COc1ccccc1N1CCN(C2=Nc3cccc4cccc2c34)CC1
  -10 | · | 102 | 33 | 0.93 | i | 86
N#Cc1c(-c2ccccc2)cc(-c2ccccc2)nc1SCC(=O)NCC(=O)O
  · | · | 97 | · | 0.92 | i | ·
CCOC(=O)c1c(Cc2ccc(Cl)cc2)c[nH]c1C
  13 | -0.6 | 105 | 23 | 1.1 | i | 109
c1cc(C2CCCCC2)ccc1Oc1nc(N2CCOCC2)nc(N2CCOCC2)n1
  -7 | -2.2 | 111 | -36 | 0.98 | i | 130
Cc1nc(SCC(=O)NCc2ccc3c(c2)OCO3)c(C#N)c2c1CCCC2
  -9 | -0.1 | 107 | · | 0.82 | i | ·
OC(c1cccs1)c1nccc2ccccc12 (configuration not stated)
  -6 | -0.5 | 113 | 9 | 0.94 | i | 106
CC(C)CCNC(=O)COC(=O)c1ccc(Br)o1
  -2 | -1.4 | 100 | 4 | 0.97 | i | 166
Cc1cc(NC(=O)Cn2c(=O)c3c(ncn3CCC(C)C)n(Cc3ccccc3)c2=O)no1
  6 | 0.7 | 99&109 | · | 0.68 | i | ·
COc1ccc(NC(=O)COC(=O)C2CC3C=CC2C3)cc1 (configuration not stated)
  -5 | · | 103 | 79* | 0.97 | i | 94*
O=C(N/N=C/C(Br)=C/c1ccccc1)C1CC1
  -7 | · | 100 | · | 1 | i | ·
CC1CC(C)CN(C(=O)C(NS(=O)(=O)c2ccc3c(c2)oc(=O)n3C)C(C)C)C1 (configuration not stated)
  13 | -3.0 | 81 | · | 0.87 | i | ·
CC(C)(C)c1nc(N2CCN(C(=O)c3ccco3)CC2)c2nnn(Cc3ccccc3)c2n1
  -3 | 0.4 | 104 | 11 | 1.1 | i | 164
C/C(=N/NC(=O)c1cc(C(C)C)[nH]n1)c1cccs1
  -1 | -3.4 | 100 | -35 | 0.91 | i | 97
CCOC(=O)CCCNC(=O)c1cncc(O)c1
  -1 | -0.8 | 90 | 0 | · | · | 116
CSc1nc2ccccc2n1CC(=O)Nc1ccc(C)c(C)c1
  -2 | -1.4 | 109 | 44 | 0.77 | i | 80
O=c1c(Cl)c(N2CCN(c3ccccc3)CC2)cnn1C12CC3CC(CC(C3)C1)C2
  -4 | -0.1 | 109 | -19 | 0.96 | i | 127
Cc1ccc2cc3c(N)c(C(=O)N4CC(=O)Nc5ccccc54)sc3nc2c1
  -6 | 1.7 | 104 | 7 | · | · | 33
